Source: PubChem BioAssay (several laboratories)
A1 inh: inhibitors of the anti-apoptotic protein A1, read as caspase activation | MEF A1-2A-BIM cells, Caspase-Glo 3/7 luminescence, 3 h; percent of clofoctol response, vehicle zero | 330,000 compounds, 0.066% hits | AID 2462 | caspase activation, % (test concentration not listed);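 active means over half of replicate activation scores above 10%, or exactly half above 10 with the replicate mean above 10; inconclusive means replicate mean below 10 yet half the replicates above 10; inactive means over half of replicates below 10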;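 further: wells of about 30 µL received 50 nL stock; many hits fall short of the cut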
HNF4A DNA FP: change in binding of human HNF4 alpha to DNA; P41235; HNF4a-FITC DNA binding, fluorescence polarization, 1 h; activity change, % at 10 µM; 360,000 compounds, 0.3% hits; AID 1224865; in the data active means activity change above about 30%, passing the limit was not always enough;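 further: controls were the assay level and a saturating level of protein; the project sought stronger binding though the title names inhibitors; some compounds called inactive have numbers as strong as hits; positive values seem to mean higher polarization but the record does not say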
UCH37 inh: inhibitors of human deubiquitinating enzyme UCH37; Q9Y5K5; inhibition, % (concentration not given with the values); purified proteasome/UCH37, Ub-AMC cleavage fluorescence; 330,000 compounds, 0.33% hits;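 active means mean of two replicates above 20%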;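 further: 0% = compound-free wells with enzyme and 100% = wells lacking proteasome; stock transfer was 100 nL into about 20 µL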
Target sequence (Q9Y5K5 whole entry, looked up): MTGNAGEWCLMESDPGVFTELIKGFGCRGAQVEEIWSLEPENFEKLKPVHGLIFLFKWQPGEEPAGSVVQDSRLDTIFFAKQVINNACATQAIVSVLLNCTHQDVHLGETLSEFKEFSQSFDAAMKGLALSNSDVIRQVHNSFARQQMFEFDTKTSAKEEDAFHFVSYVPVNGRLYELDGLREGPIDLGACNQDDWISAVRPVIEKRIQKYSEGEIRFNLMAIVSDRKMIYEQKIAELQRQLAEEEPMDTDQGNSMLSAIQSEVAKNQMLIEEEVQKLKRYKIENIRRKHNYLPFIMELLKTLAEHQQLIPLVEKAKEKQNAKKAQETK
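Reagent: Ub-AMC substrate; assay system: Proteasome-associated human UCH37 deubiquitinase; controls: no-proteasome and no-compound wells; read-out: % inhibition of Ub-AMC cleavage fluorescence; timing: 30 min preincubation with enzyme, 25 min cleavage at room temperature; signal: AMC fluorescence from Ub-AMC cleavage, excitation 355 nm, emission 460 nm; buffer or medium: Tris-HCl pH 7.4 plus ovalbumin, ATP-MgCl2, DTT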
Vif A3G: HIV-1 Vif–A3G interaction blockers – biochemical, TR-FRET, GST-Vif 1-94, biotin-A3G peptide, dose response retest, primary screen (AID 1117319). TR-FRET GST-Vif / biotin-A3G peptide binding; higher % means a stronger effect; test concentration not given here; strong numbers were not always called active. one-dose inhibition, %; IC50 in µM for titrated hits. 260,000 compounds, 0.57% hits;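 active means above the screen mean plus three standard deviations and confirmed in dose response; inconclusive means results disagree or hit not tested in dose response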;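 further: Vif residues 1-94 fused to GST binding biotinylated APOBEC3G peptide 110-148; 0% = full assay without inhibitor and 100% = GST in place of GST-Vif; retest series ran down from 100 µM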
E coli growth: inhibitors of Escherichia coli growth; OD600, 23 h; stronger effect = lower value; OD600 absorbance (test concentration not listed); AID 1053175; 330,000 compounds, 0.21% hits;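 active means OD600 absorbance below the run mean of sample wells minus 3.6 SD, in any replicate, cut at about 0.56 in these data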;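 further: stock transfer was 300 nL into about 60 µL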
Beta2AR agonist: human beta-2 adrenergic receptor agonism by FAP | P07550 | Am2.2-beta2AR cells, FAP receptor internalization, flow cytometry; reference of the scale not given here | response, % (test concentration not listed) | 340,000 compounds, 0.43% hits | AID 504454;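 active means response above a set limit, near 3 SD of response in nonfluorescent compounds, cut at about 42% in these data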;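 further: stock transfer was 100 nL into about 11 µL; a reference agonist was the positive control; negative values mostly stem from fluorescent compounds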
Target sequence (P07550 whole entry, looked up): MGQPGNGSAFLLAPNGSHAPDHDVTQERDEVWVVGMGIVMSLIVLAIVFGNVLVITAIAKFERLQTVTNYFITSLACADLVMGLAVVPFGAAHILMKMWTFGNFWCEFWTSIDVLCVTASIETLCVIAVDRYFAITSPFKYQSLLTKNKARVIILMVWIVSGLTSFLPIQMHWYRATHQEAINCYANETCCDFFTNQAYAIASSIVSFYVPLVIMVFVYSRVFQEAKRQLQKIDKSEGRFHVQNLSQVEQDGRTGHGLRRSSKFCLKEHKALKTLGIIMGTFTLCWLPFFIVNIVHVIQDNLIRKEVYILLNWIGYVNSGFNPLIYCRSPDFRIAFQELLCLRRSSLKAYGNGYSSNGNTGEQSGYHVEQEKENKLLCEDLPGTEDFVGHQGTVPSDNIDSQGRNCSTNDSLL
LANA-H2A inh: blocks KSHV LANA binding to histone H2A/H2B; 320,000 compounds, 0.6% hits; cell-free LANA-H2A/H2B peptide, fluorescence polarization; Q9QR71; inhibition, % (no concentration beside the values); in the data active means inhibition mostly above about 10%, no sharp cut-off; inactive means mostly below about 6.7%;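 further: stock transfer was 7.5 nL into about 10 µL; 0% = median of vehicle wells and 100% = median of positive control wells; one replicate is shown; the record names a cut of 25% in any replicate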
* marks the source's active call; other numbers are inactive results; ? = inconclusive; · = no result given; & = joins results of further samples. Hits appear at their usual frequency; about 2.1% have a hit in one of these screens.

The opening two compounds (preview)
Molecule | UCH37 inh | HNF4A DNA FP | Beta2AR agonist | Vif A3G | A1 inh | E coli growth | LANA-H2A inh
CC(=O)NCc1ccc(C(=O)CSc2nnc(-c3ccncc3)n2Cc2ccccc2)o1 | 1.3 | -2.8 | -1 | ? | 0.4 | 0.65 | -0.3
COCCNC(=S)N(Cc1cc2cc(C)ccc2n2nnnc12)C1CCCC1 | 2.6 | -3.0 | 3 | -2% | -0.4 | 0.69 | -1.8

The whole of this part, repeating the preview:
Molecule | UCH37 inh | HNF4A DNA FP | Beta2AR agonist | Vif A3G | A1 inh | E coli growth | LANA-H2A inh
CC(=O)NCc1ccc(C(=O)CSc2nnc(-c3ccncc3)n2Cc2ccccc2)o1 | 1.3 | -2.8 | -1 | ? | 0.4 | 0.65 | -0.3
COCCNC(=S)N(Cc1cc2cc(C)ccc2n2nnnc12)C1CCCC1 | 2.6 | -3.0 | 3 | -2% | -0.4 | 0.69 | -1.8
Cn1sccc1=O | 0.1 | 2.8 | -1 | · | -0.4 | · | 1.6
COc1ccc(/C=C/C(=O)OC(C)CN2CCOCC2)cc1 (stereo not drawn) | 2.9 | 0.6 | 9 | 16% | -0.6 | 0.68 | 2.6
O=C(CN1CCCCC1)N/N=C/c1cccc(C(F)(F)F)c1 | · | -0.1 | -10 | · | 1.4 | · | -2.1
Cc1ccc(NC(=O)NCc2nc3ccccc3n2C)cc1 | 0.2 | 1.4 | -5 | · | 0.6 | 0.68 | -7.0
C=CCn1c(=O)c(C(C)=O)cn(N(C)c2ncc(C(F)(F)F)cc2Cl)c1=O | -0.1 | 3.5 | 3 | 2% | 0.2 | 0.65 | 2.7
Cc1[nH]c2ccc(C(=O)NCCCN3CCCCCC3)cc2c1C | 1.6 | 0.4 | 2 | · | -0.4 | 0.67 | -4.7
Cn1cccc1/C=N/n1c(-c2ccc(Cl)cc2Cl)n[nH]c1=S | · | -1.1 | -5 | 9% | 1.3 | · | -5.2
CCC(=O)NC(c1cc(Cl)c2cccnc2c1O)C1CC1 (stereo not drawn) | -1.1 | -4.5 | -2 | · | 0.9 | 0.68 | 4.1
COc1ccc(N(CC(=O)Nc2ccc(C)cn2)S(=O)(=O)c2c(C)nn(C)c2C)cc1 | 6.2 | -1.0 | -4 | 3% | 0.0 | 0.74 | -6.1
Nc1ccc2c(c1)C(=O)c1ccccc1-2 | 4.9 | -1.7 | -5 | · | -0.2 | 0.62 | 0.0
O=C(Nc1ccccc1N1CCOCC1)C1CCCCN1S(=O)(=O)c1ccccc1 (stereo not drawn) | -0.9 | 4.5 | 8 | -6% | -2.0 | 0.72 | 2.2
Cc1cnc(NC(=O)CCCNC(=O)c2ccc(Cl)cc2)s1 | 1.2 | 2.4 | 5 | -17% | -0.1 | 0.68 | -0.5
Cc1ccc(S(=O)(=O)CC(=O)Nc2ccc(S(=O)(=O)Nc3onc(C)c3C)cc2)cc1 | 2.3 | -1.1 | -7 | 6%&-6% | 0.3 | 0.68 | 2.7
CCc1nnc(NC(=O)c2ccc(-c3ccc(Cl)cc3)o2)s1 | -81 | 2.7 | 1 | -5% | 0.2 | 0.82 | 1.1
Cc1ccc(C(=O)N2Cc3ccccc3CC2C(=O)O)cc1 (stereo not drawn) | -0.1 | 0.2 | 1 | 29% | 0.2 | 0.64 | -0.6
C[C@H](NC(=O)c1ccco1)C(=O)Nc1ccc(C#N)cc1 | -0.3 | -1.5 | 8 | · | 0.6 | 0.7 | 5.7
O=C(CSc1nnc(NC(=O)c2ccccc2[N+](=O)[O-])s1)NCc1ccco1 | 5.7 | -3.6 | 8 | · | -1.1 | 0.75 | 1.9
N#CC(C#N)=C1NC2(CCCC2)Cc2ccccc21 | 5.8 | -2.2 | 3 | 1% | -0.1 | 0.65 | -2.7
CC1=Nc2cc(C(=O)N3CCCCC3)ccc2Sc2ccc(C)cc21 | -0.8 | 0.1 | 0 | -1% | -0.8 | 0.67 | 0.4
COc1ccc(-c2[nH]ncc2/C=N\NC(=O)c2ccc(Br)o2)cc1OC | · | -0.8 | 3 | · | 1.6 | · | 1.7
COc1ccc(N(Cc2cc3cc(OC)ccc3[nH]c2=O)C(=O)c2cccnc2)cc1 | -68 | 0.5 | 3 | -17% | 1.4 | 0.77 | -6.0
CCC(C)(C)NC(=O)C(c1cccc(OC)c1OC)N(C(=O)CCC(=O)Nc1cc(C)on1)c1ccc2c(c1)OCCO2 (stereo not drawn) | 0.0 | -0.8 | 3 | · | 0.8 | 0.66 | 1.2
CC(=O)Nc1ccc(NC(=O)CC2(CC(=O)N3CCOCC3)CCCC2)cc1 | 3.5 | -1.5 | 2 | 3% | · | 0.7 | ·
O=C(c1cccnc1Nc1ccccc1F)N1CCOCC1 | 0.1 | 2.0 | 11 | -1% | 0.1 | 0.69 | 0.8
O=C(C1=C[C@@H](c2coc3ccccc3c2=O)C[C@@H](OCc2ccc(CO)cc2)O1)N1CCN(Cc2ccc3c(c2)OCO3)CC1 | 2.1 | -0.9 | -2 | 3% | -0.7 | · | -0.9
COc1ccccc1NC(=O)Cn1cc(C(=O)C(=O)N2CCOCC2)c2ccccc21 | 4.4 | -0.1 | -6 | 6% | 0.1 | 0.72 | -10
COC(=O)c1cc(-c2ccccc2)on1 | 4.4 | -1.1 | 1 | 5% | 0.7 | 0.71 | -4.0
C=CCn1c(C)cc(C(=O)CSc2nnc(Cc3ccccc3)o2)c1C | 0.9 | 0.1 | 2 | 5% | -0.7 | 0.76 | -1.3
Cc1[nH]c(=O)c(C#N)c2c1CSC(C)(C)C2 | 3.0 | -1.4 | -7 | 0% | 0.2 | 0.7 | 0.2
Cc1csc(SCC(=O)Nc2nnc(C)s2)n1 | 2.0 | -0.3 | -5 | · | -0.6 | 0.69 | 3.0
Cc1ccc(C(=O)NC(=S)Nc2ccccc2N2CCOCC2)cc1C | 2.4 | 1.8 | 11 | · | -0.3 | 0.67 | 0.1
CC(=O)C(Cc1ccccc1)NC(=O)COC(=O)CCN1C(=O)C2CC=CCC2C1=O (stereo not drawn) | -2.7 | -0.8 | 0 | 0% | -1.3 | 0.67 | 6.9
COc1cc(C2CC(=O)c3cnc(NC(C)=O)nc3C2)cc(OC)c1OC (stereo not drawn) | 2.5 | -0.4 | 3 | -2% | 0.9 | 0.79 | 2.0
NC(=O)NC(=O)COC(=O)c1ccccc1OCc1ccc(F)cc1 | -1.1 | -2.4 | -7 | 0% | 0.7 | 0.69 | 6.1
COCCn1c(COc2ccc(C)cc2)nc2ccccc21 | 36* | -0.8 | -11 | -5% | -0.3 | 0.69 | 7.1
COC(=O)c1ccc[n+](CCc2c[nH]c3ccccc23)c1 | 1.6 | 4.9 | 1 | · | 0.1 | 0.73 | 2.0
COCCN1C(=O)N[C@@H](CCc2ccccc2)C(C(C)=O)=C1C | 0.8 | · | · | -1% | 0.2 | · | -1.1
CC(C(=O)OCc1nnc(-c2ccccc2)o1)N1C(=O)c2ccccc2C1=O (stereo not drawn) | -1.6 | 0.2 | 2 | 8% | -1.4 | 0.71 | 1.8
CCOc1ccc(/C=N/NC(=O)C2CCCC2)c(OCC)c1 | · | -3.4 | 5 | 3% | -0.3 | · | -4.6
CCN(CC)C(=O)NC1CC2CCCC(C1)N2Cc1ccccc1 (stereo not drawn) | -0.2 | -0.2 | 2 | 15% | -0.7 | 0.69 | 1.7
COC(=O)c1ccc(NC(=O)CN2CCN(S(=O)(=O)c3ccc(Br)cc3)CC2)cc1 | 1.9 | 0.6 | 0 | -5% | -0.3 | 0.68 | -0.4
c1ccc(Cn2nnc3c(NCC4CCCO4)nc(C4CC4)nc32)cc1 (stereo not drawn) | 3.1 | 2.2 | -14 | 7% | 0.9 | 0.7 | -3.6
COC(=O)c1c(NC(=O)c2cccnc2)sc(C)c1C | 1.2 | 1.9 | 1 | 5% | 0.1 | 0.71 | -2.4
Cc1nn(-c2ccccc2)cc1/C=N/NS(=O)(=O)c1ccccc1 | · | 1.4 | -7 | 2% | -1.7 | · | -0.5
Cc1cc(=O)n2[nH]c(-c3ccc(C(C)(C)C)cc3)cc2n1 | -4.1 | 8.2 | 16 | -1%&2% | -0.9 | 0.73 | 0.6
S=C(NC1CCCCC1)NN(c1ccccc1)c1ccccc1 | 4.3 | -0.8 | -2 | -8% | 0.2 | 0.7 | -1.6
Cc1cccc(C(=O)OC(C)C(=O)NCC2CCCCC2)c1O (stereo not drawn) | -12 | -3.0 | -6 | -16% | · | 0.74 | ·
CCCCOc1ccc(C(=O)NC)cc1 | 0.4 | 0.1 | -4 | 2% | 1.6 | 0.63 | -8.1
O=C(OCC(=O)N1CCCC1=O)c1cc(S(=O)(=O)N2CCOCC2)ccc1Cl | 2.3 | 1.9 | -4 | -6% | ? | 0.71 | -3.0
Cc1nn(-c2cc(C(F)(F)F)ccc2Cl)c2nc(C(Cl)(Cl)Cl)[nH]c(=O)c12 | 6.5 | 1.5 | 2 | 12% | -0.2 | 0.65 | -1.2
Cc1ccc(C)c(CSc2nnc([C@@H](N)C(C)C)o2)c1 | 1.5 | -1.2 | 13 | 3% | -0.1 | 0.71 | -19
NC(=O)CC(NC(=O)Cc1ccc(Br)cc1)c1ccc(NCc2ccc(F)c(F)c2)c([N+](=O)[O-])c1 (stereo not drawn) | -3.4 | 18 | -6 | · | -0.3 | 0.69 | 2.8
Cc1cc(-c2ccco2)n(CC(=O)NCc2ccccc2)n1 | 6.6 | -2.8 | -1 | 3% | 0.6 | 0.73 | 2.3
CCN(CC)C(=O)CC(c1ccc(F)cc1)c1ccc(OC)cc1 (stereo not drawn) | 1.3 | -2.5 | -7 | · | -0.2 | 0.65 | -2.8
Cc1ccc(Cl)cc1NC(=O)CN1C(=O)NC(C)(C2CC2)C1=O (stereo not drawn) | 3.3 | 0.0 | 1 | · | 0.3 | 0.68 | -7.6
Cc1cccc(N2CCN(C(=S)Nc3ccc4nc(N5CCOCC5)cc(C)c4c3)CC2C)c1 (stereo not drawn) | -41 | 0.3 | -2 | 1% | -0.2 | 0.71 | -2.4
COc1cccc(CNC(=O)CCCc2nnc3n(C)c(=O)c4sccc4n23)c1 | 1.8 | 1.5 | -3 | · | -0.1 | 0.72 | 3.9
CCOc1ccc2[nH]c(=O)c(CN(Cc3nnnn3Cc3ccccc3)CC3CCCO3)cc2c1 (stereo not drawn) | -38 | -6.0 | -11 | 1% | 1.2 | 0.71 | 4.0

(further entries)
Molecule | UCH37 inh | HNF4A DNA FP | Beta2AR agonist | Vif A3G | A1 inh | E coli growth | LANA-H2A inh
CC1CN(S(=O)(=O)c2cccs2)CC(C)O1 (stereo not drawn) | 1.2 | -0.4 | 2 | 15% | 1.0 | 0.62 | -5.6
CNC(=O)c1ccc(Nc2nnc(-c3ccc(C)c(S(N)(=O)=O)c3)c3ccccc23)cc1 | -13 | -1.4 | -4 | -10% | 1.2 | 0.69 | -4.1
Cc1ccn2c(Nc3ccccc3C)c(-c3ccccn3)nc2c1 | -4.8 | 9.2 | 11 | 10% | 0.6 | 0.54 | -4.1
CCCn1c(NC(=O)CCNC(=O)c2ccccc2Cl)nc2ccccc21 | -3.4 | -1.2 | -1 | ? | -0.4 | 0.66 | -1.5
COC(=O)c1ccc(CNC(=O)C(C)N=C2NS(=O)(=O)c3ccccc32)cc1 (stereo not drawn) | 2.1 | -4.5 | 1 | -6% | · | 0.68 | ·
